High-throughput results: PubChem BioAssay, several laboratories
CSC inhib – cancer stem cell inhibition; cancer stem cell-like cells viability, luminescence; AID 2717; inhibition, % at 7.5 µM; hit rate 1.1% among 300,000;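 active = mean at 75% or more and at least half the replicates too; inconclusive = mean and replicates disagree; tested in HMLE shEcad cells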;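 also: 0% = median of negative and 100% = median of positive control wells; the first replicate is given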
PABP FP inh – PABP-poly(A) binding inhibition | P11940 | PABP-poly(A) RNA binding, fluorescence polarization | inhibition, % at 35 µM | hit rate 1% among 290,000;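 active = 50% or more with normal probe brightness, or confirmed in later tests; inconclusive = above 50% with abnormal brightness, or retests that disagree; inactive = below 50% or failed in later tests; about a fifth of its hits are not listed in these tables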;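 also: calls also rest on retests at 20 µM and on dose response follow-up; controls were probe without protein and protein plus probe with vehicle; some compounds called inactive have numbers as strong as hits; many hits fall short of the cut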
MT1-MMP act inh – blocks activation of human MT1-MMP. hit rate 0.061% among 360,000. GFP/RFP ratio change, % at 20 µM. P50281. HT1080 RFP-PRO-GFP cells, GFP/RFP ratio fluorescence, overnight; percent of plate control window, DMSO zero;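 active = GFP/RFP ratio change of at least 30% with cell ATP level not reduced by more than half and red fluorescence within 50% of control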; also: strong numbers were not always called active
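Assay system: RFP-PRO-GFP reporter HT1080 cells; read-out basis: GFP/RFP fluorescence ratio; benchmarks: DMSO wells and RFP-L50D-GFP cells; doses: 20 µM single dose, 1% DMSO; schedule: overnight cell settling, then overnight compound exposure, 37 °C, 5% CO2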
Yeast UUG start – yeast start codon fidelity modulation; hit rate 0.13% among 350,000; activity score, % at 18.7 µM; S. cerevisiae UUG-firefly luciferase reporter, luminescence/redox ratio;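 active = replicate mean at a twofold rise or more, about +100% in these data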;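 also: firefly luciferase made from a UUG start codon reports start codon fidelity; reporter light over untreated wells divided by growth signal over untreated wells; some hits fall short of that in this replicate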
Rce1 inh – yeast Ras-converting enzyme inhibition; Q03530; yeast membranes, quenched prenylated peptide cleavage fluorescence; calls only; hit rate 0.27% among 290,000; AID 2563;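 active = fall in fluorescence gain of 50% or more versus controls, with final raw signal at or below 3038400; inconclusive = same 50% fall but final raw signal above 3038400; inactive = fall in fluorescence gain under 50%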;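 also: plate controls were neutral control wells for no effect and wells lacking membranes for full effect; tested at 10 µM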
Target sequence (Q03530 whole entry, looked up): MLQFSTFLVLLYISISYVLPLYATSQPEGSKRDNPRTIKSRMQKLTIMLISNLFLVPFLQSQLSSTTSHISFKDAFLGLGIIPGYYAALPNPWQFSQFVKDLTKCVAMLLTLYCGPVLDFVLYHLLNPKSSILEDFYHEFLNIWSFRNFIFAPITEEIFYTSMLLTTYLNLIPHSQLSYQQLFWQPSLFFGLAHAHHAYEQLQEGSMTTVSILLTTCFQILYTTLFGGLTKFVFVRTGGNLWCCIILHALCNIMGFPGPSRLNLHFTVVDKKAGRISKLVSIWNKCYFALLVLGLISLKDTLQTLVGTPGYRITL
eIF4H inh – inhibitors of RNA binding by human eIF4H; Q15056; eIF4H fluorescence polarization binding assay; inhibition, % at 35 µM; hit rate 0.94% among 290,000; AID 2012;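 active = 50% or more with normal probe brightness, or confirmed in later tests; inconclusive = above 50% with abnormal brightness, or retests that disagree; inactive = below 50% or failed in later tests; about a fifth of its hits are not listed in these tables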;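 also: calls also rest on retests at 20 µM and on dose response follow-up; 0% = protein and probe with vehicle and 100% = probe without protein; strong numbers were not always called active; many hits fall short of the cut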
Env fusion inh – HIV envelope-mediated fusion inhibition | hit rate 1.1% among 360,000 | AID 651610 | HeLa-JRFL Env/CEM21 cell fusion, luciferase | inhibition, % at 12.3 µM;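 active = mean replicate inhibition score of at least 50 and every replicate individually at or above 50; inconclusive = only one of the two criteria met; inactive = mean below 50 and not all replicates reaching 50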;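 also: 0% = plate neutral controls and 100% = maraviroc near 300 nM; one replicate is shown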
eIF4H inh retest – further read-out of eIF4H inh, marked with its call; inhibition, %; compound at 20 µM; confirmation average;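 mean of two retest wells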
PABP FP inh retest – further read-out of PABP FP inh, marked with its call; inhibition, %; compound at 20 µM; confirmation repeats;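 mean of two retest wells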
MT1-MMP act inh RFP – recorded beside MT1-MMP act inh, whose call it bears; RFP signal change, %; measured here: RFP expression control read;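 0 = vehicle wells; hits needed this value within 50% of zero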
Starred values were filed as active, the others as inactive; i = inactive; ? = inconclusive; / = no result given; & = joins results of further samples.

A first look:
SMILES	CSC inhib	PABP FP inh	MT1-MMP act inh	MT1-MMP act inh RFP	Yeast UUG start	Rce1 inh	eIF4H inh	Env fusion inh	others
Cc1cc(C)cc(NS(=O)(=O)c2ccc3oc(=O)ccc3c2)c1	2	2	2	-2	/	i	-10	-24
CCOC(=O)c1cccc(NC(=O)c2cccs2)c1	2	4	0	-6	6	i	-5	/
COc1ccc(OC)c(N=Cc2c(O)[nH]c3ccccc23)c1	-10	11	1	3	/	i	1	/
CCOC(=O)C1CCc2nc3ccccc3c(=O)n21 (stereo unspecified)	-4	-7	6	4	/	i	-4	/
Cc1onc(-c2ccccc2Cl)c1C(=O)OCC(=O)Nc1ccc2c(c1)OCO2	3	-6	-8	-9	-8	i	6	-8
Cc1sc(=NC(=O)c2ccco2)n(C)c1-c1ccccc1	-12	-3	0	-1	/	i	-8	-256

The listing, previewed entries included:
SMILES	CSC inhib	PABP FP inh	MT1-MMP act inh	MT1-MMP act inh RFP	Yeast UUG start	Rce1 inh	eIF4H inh	Env fusion inh	others
Cc1cc(C)cc(NS(=O)(=O)c2ccc3oc(=O)ccc3c2)c1	2	2	2	-2	/	i	-10	-24
CCOC(=O)c1cccc(NC(=O)c2cccs2)c1	2	4	0	-6	6	i	-5	/
COc1ccc(OC)c(N=Cc2c(O)[nH]c3ccccc23)c1	-10	11	1	3	/	i	1	/
CCOC(=O)C1CCc2nc3ccccc3c(=O)n21 (stereo unspecified)	-4	-7	6	4	/	i	-4	/
Cc1onc(-c2ccccc2Cl)c1C(=O)OCC(=O)Nc1ccc2c(c1)OCO2	3	-6	-8	-9	-8	i	6	-8
Cc1sc(=NC(=O)c2ccco2)n(C)c1-c1ccccc1	-12	-3	0	-1	/	i	-8	-256
O=C(COC(=O)c1ccc2c(c1)OCCO2)Nc1cccc(S(=O)(=O)N2CCOCC2)c1	9	-17	-5	0	/	i	-5	1
COc1ccccc1N1CCN(CC(O)COCc2cccs2)CC1 (stereo unspecified)	-10	0	4	4	/	i	7	20
CCOc1cc(/C=C2/C(=N)N3N=C(CC)SC3=NC2=O)ccc1OC(=O)c1ccco1	1	20	-11	2	-19	i	1	0
COc1ccc(NC(=O)C(NC(=O)c2ccc(=O)[nH]c2)c2ccc(OC)cc2)cc1 (stereo unspecified)	5	52	6	6	-15	i	-3	4	eIF4H inh retest=11;PABP FP inh retest=10
COc1ccc(NC(=O)CSc2nc3scc(C)c3c(=O)[nH]2)cc1	-11	6	6	2	-8	i	-5	5
NS(=O)(=O)c1ccc(CNC(=O)c2cc(-c3ccccc3)nc3ccccc23)cc1	-15	-2	2	0	1	i	-7	1
Cc1ccc(-c2nn3c(C)nnc3s2)cc1NC(=O)c1ccc(OC(C)C)cc1	4	-8	1	1	-27	i	-4	-26
OCCNc1nc(Nc2ccccc2Cl)nc(N2CCCC2)n1	/	/	3	0	3	i	/	26
COc1ccc(CCNC(=O)CSc2nc(-c3ccco3)cc(C(F)(F)F)n2)cc1	-2	4	-4	-1	-6	i	-8	/
COC(=O)c1nnn(Cc2ccccc2)c1N	-10	-5	1	11	-17	i	-5	/
COc1cccc(Sc2nc(-c3ccccc3)ncc2S(C)(=O)=O)c1	/	12	-6	-4	-15	i	5	-7
COc1ccc(CN2C(=O)N(c3ccccc3)C(=O)C2CC(=O)Nc2ccccc2)cc1OC (stereo unspecified)	/	-3	1	1	/	i	-8	12
CCCCN(NC(C)=O)c1nc(Cl)nc(NC(C)C)n1	2	-10	1	-3	-9	i	2	/
N#C/C(=C\C=C\c1ccccc1)C(=O)Nc1ccccc1	10	7	-1	-2	/	i	0	-10
COc1ccc(NC(=O)CSc2nnc(-c3ccc(C)cc3)n2N)cc1	-5	-8	3	4	-17	i	-8	3
C[C@H](NC(=O)c1nc[nH]c1C(=O)NC(c1ccccc1)c1ccccc1)C(=O)OC(C)(C)C	33	1	-10	-7	-6	i	22	-13
Cc1ccc(NC(=O)c2cccc(C(=O)OC(C)C)n2)c(Br)c1	29	4	4	3	/	/	-16	2
Brc1ccc2oc3c(N4CCOCC4)ncnc3c2c1	/	-5	2	-1	-16	i	1	/
O=C1CC(c2cccc(Oc3ccccc3)c2)NC(=O)N1 (stereo unspecified)	-2	7	3	2	-1	i	0	-93
CC(C)c1nc2c(s1)CCc1onc(-c3ccc(Cl)cc3)c1-2	20	/	-4	1	-5	i	/	-2
CC(=O)N1CCc2cc(Br)cc(S(=O)(=O)N3CCCCCC3)c21	-10	-8	7	2	-8	i	9	/
Cc1ccc(F)c(S(=O)(=O)NC(=O)C2(C)CCN2C(=O)CCC2CCCC2)c1 (stereo unspecified)	/	/	2	5	7	/	/	-83
CN(Cc1nc(-c2cnccn2)no1)CC1(c2ccccc2)CC1(C)C (stereo unspecified)	-3	2	-3	-2	14	i	10	7
COCCN(C(=O)CNC(=O)c1ccco1)C(C(=O)NC1CCCCC1)c1cccs1 (stereo unspecified)	2	11	0	2	-20	i	2	/
CC(OC(=O)CCC(=O)N1CCN(S(=O)(=O)c2ccc3ccccc3c2)CC1)C(=O)NC(N)=O (stereo unspecified)	-11	0	/	/	5	i	8	-8
CCOC(=O)CSc1nnc(-c2cccnc2)o1	-1	5	1	5	-22	i	0	/
COc1cc(-c2nnc(COc3ccc(Cl)cc3C)o2)cc(OC)c1OC	6	-7	1	-5	-9	i	-8	-7
COc1ccc2c(CN3CCCCC3)cc(=O)oc2c1	/	/	-1	2	-5	/	/	-10
COc1ccc(O)c(-c2cc(-c3ccccc3Cl)[nH]n2)c1	/	10	3	-2	-15	i	1	-56
COc1ccccc1C(=O)NCC(=O)OCC(=O)Nc1cccc(S(=O)(=O)N(C)C)c1	-9	-3	4	6	-6	i	2	-10
CCN1CCN(CCC(=O)Nc2cc(C)ccc2C)CC1	-7	-2	-1	7	-32	i	-6	-4
CCCCc1nc2n[nH]c(N)c2c2c1CCCC2	7	-7	8	-2	-7	i	-6	-136
COc1ccccc1OCC(=O)O	-18&-4	-1&-2	3&5	3&4	-19&-25	i	6&-1	-37
CCc1nc(SCC(=O)Nc2ccc(C(=O)O)cc2)n[nH]1	-19	25	2	1	-10	i	-4	2
O=C(O)c1cccc(-n2cccc2/C=C2/NC(=O)N(c3ccc(Cl)cc3)C2=O)c1	/	?	-6	4	/	/	?	0
CC(C)(C)c1ccc(CC(=O)N2CCC2(C)C(=O)Nc2cnc3ccccc3c2)cc1 (stereo unspecified)	/	/	-5	-23	3	/	/	46
COc1ccc(CNC(=O)C[C@H]2C[C@H](C(=O)N3CCOCC3)[C@@]3(CCC4CCCC4)c4[nH]c5ccc(Cl)cc5c4CCN3C2=O)cc1OC	/	/	-30	-35	-18	/	/	-11
O=C1C2CC=C(Cl)CC2C(=O)N1CCN1CCOCC1 (stereo unspecified)	-3	6	3	7	-17	i	2	/
c1ccc(-c2nc3cnccn3c2Nc2ccc3c(c2)OCCO3)cc1	-14	4	7	3	-17	/	-12	-29
NC(=O)Cn1c(=O)n(Cc2ccccc2)c(=O)c2cccnc21	-10	-1	0	4	-5	i	-3	-10
Cc1cc(=O)[nH]c(SCCCOc2ccc(F)cc2)n1	/	-9	8	-4	0	i	-6	14
CC1CCN(CCCn2c(=S)[nH]c3c(sc4ccccc43)c2=O)CC1	-3	-5	10	3	-16	i	-2	0
O=C(COC(=O)c1cc(=O)[nH]c2ccccc12)Nc1nccs1	-13	13	4	7	-17	i	17	8
O=C(Nc1cccc(Cl)c1)O/N=C\c1ccncc1	-5	-6	-3	0	-14	i	-5	/
CS(=O)(=O)c1ccc2nc(NC(=O)C3CCCO3)sc2c1 (stereo unspecified)	-6	4	-1	2	/	i	-3	-4
NC(=O)c1ccc(NC(=O)COC(=O)CCSc2ccccc2)cc1	-8	-5	1	3	-19	i	-8	5
Cc1ccc(C(C)C)c(OCc2n[nH]c(=S)o2)c1	4	9	4	4	-29	i	7	9
c1ccc(-n2nnc3ccccc32)nc1	-1	-1	1	3	/	i	5	/
COc1ccc(S(=O)(=O)N2CCN(c3ncnc4c(-c5ccccc5)nsc34)CC2)cc1	-10	-1	0	-1	-21	/	-3	-45
Cc1noc(C)c1COc1ccccc1C(=O)N(C)CC(=O)Nc1cccc(F)c1	-8	/	2	1	3	i	/	16
CCCc1c(C)c2c(C)[nH]nc2oc1=O	5	-3	3	9	-14	i	3	/
Cc1ccc(C)c(N2CCN(C(=O)C3CCCN(S(=O)(=O)c4c(C)noc4C)C3)CC2)c1 (stereo unspecified)	-4	-12	0	-15	7	/	0	10
CN1CCN(Cc2nc3c(c(=O)n(C)c(=O)n3C)n2CCCc2ccccc2)CC1	-6	-6	-20	-4	-8	i	-7	-23
COc1ccc(C2SCC(=O)N2CCCN(C)C)cc1 (stereo unspecified)	8	9	-1	-1	/	i	-5	/

(list continues)
SMILES	CSC inhib	PABP FP inh	MT1-MMP act inh	MT1-MMP act inh RFP	Yeast UUG start	Rce1 inh	eIF4H inh	Env fusion inh	others
CC(=O)Nc1cccc2c1C(=O)N(c1ccc(OC(C)=O)cc1)C2=O	13	2	-6	3	/	i	6	13
O=C(COC(=O)c1ccc(F)cc1F)Nc1cccc(S(=O)(=O)N2CCOCC2)c1	/	/	3	5	-9	/	/	0
O=C(O)c1cccc(N2C(=O)c3ccc(C(=O)c4cccc([N+](=O)[O-])c4)cc3C2=O)c1	/	22	-1	5	/	i	22	-12
CCOC(=O)CC(=O)CSc1ncnc2c1nnn2-c1ccc(OC)cc1	8	?	-3	8	/	i	4	-33
OC1(C#CCN2CCCC2)CCCCC1	-6	13	0	3	4	i	9	6
CCc1ccc(N2CC(C(=O)NCc3ccc4c(c3)OCO4)CC2=O)cc1 (stereo unspecified)	-3	9	2	4	4	i	-9	33
Cc1c(Cl)cccc1NC(=O)C1NC(=O)CC1c1ccccc1 (stereo unspecified)	-17	4	2	0	-15	i	-2	-24
CCCCN1CC(N2CCN(C)CC2)CS1(=O)=O (stereo unspecified)	/	/	-2	-3	2	/	/	-18
Cc1ccccc1N1CCN(C2CCCN(C(=O)CCN3CCCCO3)C2)CC1 (stereo unspecified)	-1	5	0	-1	-19	i	8	-16
Cc1ccc(CN2CC(C(=O)Nc3ccc(S(=O)(=O)N4CCCCC4)cc3)CC2=O)cc1 (stereo unspecified)	21	7	-1	-1	-1	i	3	19
CC(CO)N1CCS(=O)(=O)CC1 (stereo unspecified)	-14	1	1	4	-1	i	-10	/
CC(C)N(CCNC(=O)c1ccc(OCC2CCCO2)cc1)C(C)C (stereo unspecified)	-4	7	0	3	3	/	-5	3
Cc1ccc(NC(=O)C(C)N2CCN(C)CC2)cc1S(=O)(=O)N1CCOCC1 (stereo unspecified)	0	/	3	0	-8	/	/	/
Cc1cc(C)cc(C(=O)NC(CC(N)=O)c2ccc(N3CCC(Br)CC3)c([N+](=O)[O-])c2)c1 (stereo unspecified)	-5	6	6	7	-5	i	1	21
COc1cc2nc(CN(C)Cc3ccc(Cl)cc3)[nH]c(=O)c2cc1OC	-18	2	2	-4	/	i	3	-9
O/N=C/c1ccccc1OCc1ccccc1Cl	-8	-3	1	1	-14	i	8	/
COc1ccc(N2CCN(C3CCCN(C(=O)CN4CCCCC4=O)C3)CC2)cc1 (stereo unspecified)	21	0	1	1	-17	i	-2	-1
CCCN1CCN(C(=O)CN2C(=O)CC(C)(C)S(=O)(=O)c3ccccc32)CC1	-3	-9	1	1	-24	i	-15	-38
